# LANA-H2A inh = blockers of LANA interaction with H2A/H2B – biochemical, FP readout, HTS, primary screen; hit rate 0.6% among 320,000; inhibition, % (concentration not given with the values); cell-free LANA-H2A/H2B peptide, fluorescence polarization; AID 2629, 2010; in the data active = inhibition mostly above about 10%, no sharp cut-off; inactive = mostly below about 6.7%;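 note: stock transfer was 7.5 nL into about 10 µL; 0% = median of vehicle wells and 100% = median of positive control wells; one replicate is shown; the record names a cut of 25% in any replicate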
# Target sequence (Q9QR71 whole entry, looked up): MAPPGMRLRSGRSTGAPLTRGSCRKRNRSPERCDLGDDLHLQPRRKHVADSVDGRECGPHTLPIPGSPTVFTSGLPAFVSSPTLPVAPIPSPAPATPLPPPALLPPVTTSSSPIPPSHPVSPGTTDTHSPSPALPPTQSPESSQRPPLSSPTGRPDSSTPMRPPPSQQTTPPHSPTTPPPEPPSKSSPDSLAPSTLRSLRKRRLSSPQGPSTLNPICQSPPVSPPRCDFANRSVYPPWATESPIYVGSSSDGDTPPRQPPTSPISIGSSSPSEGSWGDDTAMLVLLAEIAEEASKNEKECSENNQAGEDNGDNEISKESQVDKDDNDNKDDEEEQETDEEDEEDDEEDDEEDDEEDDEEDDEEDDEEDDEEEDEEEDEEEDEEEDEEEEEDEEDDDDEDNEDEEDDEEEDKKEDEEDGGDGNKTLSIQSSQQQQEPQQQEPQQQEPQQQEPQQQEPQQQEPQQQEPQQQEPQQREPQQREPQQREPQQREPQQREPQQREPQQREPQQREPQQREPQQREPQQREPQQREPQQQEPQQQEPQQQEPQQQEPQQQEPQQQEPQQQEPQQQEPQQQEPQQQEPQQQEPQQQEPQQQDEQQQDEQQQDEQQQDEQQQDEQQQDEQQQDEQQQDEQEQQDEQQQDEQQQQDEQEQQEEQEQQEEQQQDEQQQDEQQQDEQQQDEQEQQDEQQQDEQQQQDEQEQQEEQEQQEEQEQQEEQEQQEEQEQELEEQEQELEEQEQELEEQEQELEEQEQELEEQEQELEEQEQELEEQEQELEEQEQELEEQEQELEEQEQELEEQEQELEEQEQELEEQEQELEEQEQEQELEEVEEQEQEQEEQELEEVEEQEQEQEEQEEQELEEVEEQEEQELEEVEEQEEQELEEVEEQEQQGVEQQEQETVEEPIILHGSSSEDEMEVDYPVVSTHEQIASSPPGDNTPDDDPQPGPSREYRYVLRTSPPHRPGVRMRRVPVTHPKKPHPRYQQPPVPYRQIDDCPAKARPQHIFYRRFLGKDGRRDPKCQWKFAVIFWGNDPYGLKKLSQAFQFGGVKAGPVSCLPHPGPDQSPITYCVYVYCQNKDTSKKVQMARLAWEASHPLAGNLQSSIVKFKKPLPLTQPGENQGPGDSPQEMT
# UCH37 DUB inh = inhibitors of human UCH37 deubiquitinase, primary screen, biochemical, Ub-AMC cleavage, fluorescence; Ubiquitin carboxyl-terminal hydrolase isozyme L5 (Homo sapiens), Q9Y5K5; purified proteasome/UCH37; inhibition, % (concentration not given with the values); hit rate 0.33% among 330,000;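 active = mean of two replicates above 20%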;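 note: 0% = compound-free wells with enzyme and 100% = wells lacking proteasome; stock transfer was 100 nL into about 20 µL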
#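 Assay system: Proteasome-bound UCH37. Buffer or medium: pH 7.4 Tris-HCl (50 mM) with ovalbumin, ATP-MgCl2, DTT. Incubation: 30 min preincubation with enzyme, 25 min cleavage at room temperature. Measured by: fluorescence, ex 355 nm, em 460 nm. Read-out basis: percent inhibition. Control set: wells without proteasome as full block, compound-free enzyme plus substrate as uninhibited.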
# Vif A3G = inhibitors of Vif binding to APOBEC3G peptide, primary screen, biochemical, TR-FRET, GST-Vif 1-94, biotin-A3G peptide, dose response retest (AID 1117319); Virion infectivity factor (Human immunodeficiency virus type 1 group M subtype B (isolate …; TR-FRET GST-Vif / biotin-A3G peptide binding; higher % means a stronger effect; test concentration not given here; strong numbers were not always called active; inhibition, %, or IC50 in µM where a hit was titrated; hit rate 0.57% among 260,000;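 active = above the screen mean plus three standard deviations and confirmed in dose response; inconclusive = results disagree or hit not tested in dose response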;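 note: Vif residues 1-94 fused to GST binding biotinylated APOBEC3G peptide 110-148; 0% = full assay without inhibitor and 100% = GST in place of GST-Vif; retest series ran down from 100 µM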
# A1 inh = caspase 3/7 activation in MEF A1-2A-BIM cells, primary screen, A1 inhibitor project, cell-based, luminescence, HTS. hit rate 0.066% among 330,000. AID 2462, 2010. caspase activation, % (test concentration not listed). Caspase-Glo 3/7 luminescence, 3 h; percent of clofoctol response, vehicle zero;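 active = over half of replicate activation scores above 10%, or exactly half above 10 with the replicate mean above 10; inconclusive = replicate mean below 10 yet half the replicates above 10; inactive = over half of replicates below 10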;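 note: wells of about 30 µL received 50 nL stock; many hits fall short of the cut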
# HNF4A DNA FP = change in binding of human HNF4A to DNA, primary screen, biochemical, fluorescence polarization, FITC-DNA; AID 1224865, 2016; hit rate 0.3% among 360,000; 1 h; Hepatocyte nuclear factor 4-alpha (Homo sapiens), P41235; activity change, % at 10 µM; in the data active = activity change above about 30%, passing the limit was not always enough;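 note: controls were the assay level and a saturating level of protein; the project sought stronger binding though the title names inhibitors; some compounds called inactive have numbers as strong as hits; positive values seem to mean higher polarization but the record does not say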
# Ecoli growth = E. coli growth inhibition, primary screen, OD600 | hit rate 0.21% among 330,000 | Escherichia coli growth, 23 h; active compounds read low | OD600 absorbance (concentration not given with the values);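 active = OD600 absorbance below the run mean of sample wells minus 3.6 SD, in any replicate, cut at about 0.56 in these data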;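 note: stock transfer was 300 nL into about 60 µL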
# Beta2AR agonist = beta2AR agonists driving receptor internalization, primary screen, cell-based, FAP fluorogen, flow cytometry | Beta-2 adrenergic receptor (Homo sapiens), P07550 | Am2.2-beta2AR cells; reference of the scale not given here | response, % (no concentration beside the values) | hit rate 0.43% among 340,000;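 active = response above a set limit, near 3 SD of response in nonfluorescent compounds, cut at about 42% in these data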;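 note: stock transfer was 100 nL into about 11 µL; a reference agonist was the positive control; negative values mostly stem from fluorescent compounds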
# * = called active by the depositor; i = inactive; u = inconclusive; x = not tested or not shown.
SMILES,Beta2AR agonist,A1 inh,UCH37 DUB inh,Ecoli growth,Vif A3G,LANA-H2A inh,HNF4A DNA FP
CCC(Sc1ccc2nnc(-c3cccnc3)n2n1)C(=O)OC (stereo not given),4,-0.6,-0.2,0.67,-9%,-4.4,-0.1
O=C(CCn1c(=O)[nH]c2ccsc2c1=O)Nc1ccc(F)c(F)c1,-3,0.1,1.9,0.72,-80%,-3.3,-0.7
O=C1C2C(C(=O)N1/N=C/c1ccc(N3CCCCC3)o1)C1C=CC2C12CC2 (stereo not given),1,-0.1,x,x,x,-2.8,0.7
CNS(=O)(=O)c1cccc(C(=O)OCC(=O)N(CCC#N)c2ccccc2)c1,-2,0.3,2.6,0.71,22%,-4.4,-1.0
COc1ccc(OC)c(NC(=O)C2CC(=O)N(c3ccccc3)C2)c1 (stereo not given),-3,-0.7,3.6,0.74,21%,2.8,-3.7
Cc1ccc(CNC(=O)C23CN(Cc4ccccc4)CC2C(c2cccc([N+](=O)[O-])c2)=NO3)cc1 (stereo not given),-6,-0.7,-0.5,0.71,18%,1.3,-0.6
Cc1cc(NC(=O)COC(=O)c2c(C)nn(-c3ccccc3)c2C)no1,6,-0.1,4.7,0.73,-6%,-3.1,-3.4
COc1ccccc1NC(=O)c1c(Nc2ccccc2C)sc(C(=O)Nc2cccc(Cl)c2)c1N,18,-0.1,2.1,0.74,26%,1.4,1.8
CCSc1nnc(NC(=O)C2CC=CCC2C(=O)O)s1 (stereo not given),2,-0.6,6.3,0.71,20%,1.1,-9.7
COC(=O)c1ccc(NC(=O)CSc2nnc(-c3ccncc3)n2C)cc1,13,0.1,1.0,0.7,1%,5.2,-1.0
CCCC(NC(=O)c1c(C)noc1C)C12CC3CC(CC(C3)C1)C2 (stereo not given),1,1.8,2.2,0.72,2%,3.5,0.5
O=C(O)C1CC=CCC1C(=O)NC12CC3CC(CC(C3)C1)C2 (stereo not given),2,0.9,1.4,0.76,6%,2.2,0.6
CCOc1ccc(-c2cc(C(=O)O)c3ccccc3n2)cc1,-5,-0.4,i,0.69,21%,0.1,5.9
Cc1c(CCC(=O)NC2CC2)c(=O)oc2cc(O)ccc12,-1,0.0,i,0.75,x,-0.9,-3.2
CCCc1cc2nnc(SCC(=O)N(C)C3CCCCC3)n2c(N)n1,-16,-0.4,1.9,0.7,x,-1.2,-1.7
COc1cc2c(cc1NC(=O)COC(=O)[C@@H](NS(=O)(=O)c1ccccc1)C(C)C)oc1ccccc12,6,-0.2,-1.8,0.72,2%,-1.5,4.3
O=C(Oc1ccc2ccccc2c1Cl)N1CCCCCC1,2,-4.2,4.5,0.67,u,-2.8,-2.8
COC(=O)CCCC(=O)N1CCCC(N(C)CCc2ccccc2)C1 (stereo not given),-6,-0.2,0.1,0.68,x,5.0,1.3
CC(C(=O)NC1C=CS(=O)(=O)C1)N1C(=O)/C(=C/c2ccc(Cl)cc2)SC1=S (stereo not given),-7,0.1,8.8,0.68,x,-4.4,-2.8
COc1ccc(NC(=O)C2CCN(C(=O)Nc3ccc(C)cc3)CC2)cc1OC,-1,0.4,3.1,0.66,-6%,2.0,2.7
Cc1cc(C)nc(-n2ncc3c2CC(c2ccc(C(C)C)cc2)CC3=O)n1 (stereo not given),-1,-0.5,1.3,0.67,-4%,3.1,22
COc1ccc(-n2ccnc2SCC(=O)NC2CCCC2)cc1,-9,0.9,2.0,0.7,-17%,2.1,0.8
O=C(CCNS(=O)(=O)c1ccccc1C(F)(F)F)N1CCN(S(=O)(=O)c2cccc(Cl)c2)CC1,7,0.2,1.8,0.71,1%,4.9,-0.9
Cc1cccc(NC(=S)N2CCN(c3ccc(F)cc3)CC2)c1,8,0.8,4.9,0.75,3%,-7.6,-0.1
COc1ccc(N(CC(=O)NC2CCCCC2)S(=O)(=O)c2c(C)[nH]c(=O)[nH]c2=O)cc1,2,0.7,2.9,0.69,-7%,-3.6,-1.1
Cc1cccc(NC(=O)/C=C/c2cccs2)n1,-4,-4.7,7.8,0.64,5%,-0.4,1.1
CCc1ccc(OCC(=O)NNC(=O)c2ccc(-n3cncn3)c([N+](=O)[O-])c2)cc1,-1,x,2.1,0.65,-11%,x,-1.6
O=C(COC(=O)c1oc2ccccc2c1CSc1ccc(Cl)cc1)NC1CCCC1,-2,-0.8,4.7,0.72,x,4.9,-3.1
CCCCN(C)C(=O)c1oc2ccc(S(=O)(=O)N3CCCCCC3)cc2c1C,3,u,6.4,0.68,8%,-4.8,-0.2
CC1CCN(CCOCCSc2ccc(Cl)cc2)CC1,1,-2.5,4.5,0.67,26%,1.1,1.3
NS(=O)(=O)c1ccc(CCNC(=O)CNC(=O)c2ccccc2F)cc1,0,-0.2,2.9,0.68,x,3.4,-1.2
Cc1ccc(CNC(=O)CSc2nc3ccccc3c(=O)n2CC2CCCO2)cc1 (stereo not given),2,0.1,2.9,0.68,x,3.4,0.7
CN(C)CCN(C(=O)CN1C(=O)c2ccccc2C1=O)c1nc2cc3c(cc2s1)OCCO3,-11,1.7,1.9,0.68,2%,0.5,-3.8
O=C(NCc1ccncc1)Nc1ccc2c(c1)OCO2,-2,0.5,-0.3,0.67,-1%,-3.4,-2.1
CC(C)OC(=O)C1C(=O)CC(C)(O)C(C(=O)OC(C)C)C1c1ccccc1 (stereo not given),-6,0.0,-2.1,0.67,-5%,-2.7,-0.1
CC1=Nc2cc(Cl)ccc2Oc2ccccc21,-2,-0.4,2.9,0.68,x,0.8,-0.6
COc1cccc(NC(=O)NCc2cccn2C)c1,-3,-2.0,-6.0,0.72,13%,-1.9,-0.1
O=C(O)c1cccc(N=C2NC(=O)C(CO)(CO)S2)c1,-1,-0.2,0.5,0.66,x,5.2,-0.6
Cc1cc(SCc2ccc(Br)cc2)nc(=O)[nH]1,8,1.5,2.4,0.68,x,-1.6,2.7
Fc1ccc(NC2=NCCCCC2)cc1,4,0.1,1.2,0.65,x,2.3,-2.2
CC1=CC2=NC(=O)CC(C)(C(=O)N(CC(=O)NC3CCCC3)c3cc(C)cc(C)c3)N2C=C1 (stereo not given),-2,0.6,-62,0.67,-3%,-0.6,-3.4
O=C(CSc1nnc(-c2ccncc2)n1Cc1ccco1)c1ccc(Cl)cc1,-3,-0.1,6.1,0.68,17%,3.8,-1.5
N#CCNC(=O)C1c2ccccc2Oc2ccccc21,-1,0.6,3.0,0.65,x,-0.4,1.4
Cn1c(=O)oc2cc(S(=O)(=O)NCCN3CCN(c4ccccc4)CC3)ccc21,-1,1.0,4.9,0.7,6%,-17,-1.5
COc1ccccc1C(=O)N1CCN(c2ccc(N3CCOCC3)nn2)CC1,3,-1.3,-155,0.65,3%,x,1.9
CC(=O)Nc1ccccc1NC(=O)C/C(C)=N/NC(=O)c1cccnc1,1,0.1,x,x,x,2.8,5.0
Cc1cc(NC(=O)COC(=O)C(Cc2ccccc2)NC(=O)c2ccco2)no1 (stereo not given),12,3.1,1.5,0.68,2%,-0.6,-1.1
COc1ccccc1CNC(=O)COC(=O)Cc1ccc(Br)cc1,2,-1.2,-2.1,0.7,-7%,8.7,-1.0
CCC1CCCCN1S(=O)(=O)c1ccc2[nH]c(=O)ccc2c1 (stereo not given),5,x,3.4,0.79,x,6.9,4.2
CCOc1ccc(-c2nnn(CC(=O)NCc3ccccc3)n2)cc1,-4,0.1,4.2,0.66,3%,8.8,-2.0

# The results go on:
SMILES,Beta2AR agonist,A1 inh,UCH37 DUB inh,Ecoli growth,Vif A3G,LANA-H2A inh,HNF4A DNA FP
COc1cc(/C=C/c2cc[n+](C)cc2)ccc1OCC(=O)Nc1ccc(Cl)c(Cl)c1,24,0.4,-24,0.59,x,-15,6.8
COc1ccc(Cl)cc1NC(=O)C(C)N1CCc2ccccc21 (stereo not given),13,-0.8,3.8,0.71,x,-3.3,0.3
COc1ccc2oc(-c3ccccc3)c(C(=O)N3CCOCC3)c2c1,5,0.0,-58,0.76,-6%,5.2,0.5
O=C(COc1cc2oc(=O)c3c(c2cc1Cl)CCC3)NCCCn1ccnc1,1,1.9,-1.8,0.71,x,1.5,2.1
O=C(Cn1cc2c(n1)CCCC2)NCc1cccs1,-1,0.0,4.8,0.72,0%,1.3,2.2
CCN(CC)C(=O)c1sc(N)c(C#N)c1C,-5,-0.2,5.6,0.64,-4%,1.0,-0.6
O=C(Cn1nc(Cl)nc1Cl)c1ccc(F)cc1,-7,0.6,5.5,0.69,x,-4.3,0.6
Cc1nn(CC(=O)N2CCc3ccccc32)c(C)c1S(=O)(=O)NC(C)(C)C,9,0.8,2.6,0.72,3%,-0.1,-0.6
Cc1nn(C)c(C)c1S(=O)(=O)N(CC(=O)NCCCN1CC(C)CC(C)C1)c1ccc(C(C)C)cc1 (stereo not given),11,0.9,3.9,0.66,-11%,-3.4,-9.2
COc1cc(OC)cc(C(=O)NNC(=O)CCC(=O)c2cc(C)sc2C)c1,2,0.4,1.9,0.7,x,-2.7,-1.9
CN1CCN(C(=O)C2CC(c3ccc(F)cc3)=NO2)CC1 (stereo not given),5,-1.0,1.5,0.73,-1%,0.3,3.6
Cc1ccc(CS(=O)(=O)c2nsc(C)c2C#N)cc1,-13,-3.5,2.2,0.72,-1%,1.3,3.6
O=C(CCN1C(=O)S/C(=C\c2ccccc2)C1=O)NCCCn1ccnc1,5,-0.2,6.9,0.7,2%,13,4.5
COc1cc(C(C)=O)ccc1OC(=O)CN1C(=O)c2ccccc2C1=O,8,-2.1,5.5,0.64,-1%,3.1,3.4
Cc1cccc(C(=O)NCC(=O)NCC(c2ccco2)N2CCCCC2)c1 (stereo not given),-11,-0.1,0.8,0.69,1%,-4.1,-0.5
Cn1cc(/C=C(\NC(=O)c2ccccc2Cl)C(=O)NCCCN2CCOCC2)c2ccccc21,-6,-0.6,12,0.67,x,1.9,-2.5
Cc1nnc(SCC(=O)NCc2ccco2)[nH]c1=O,2,-0.3,0.7,0.68,29%,1.6,-4.1
Nn1c(SCc2ccc(Br)cc2)nnc1-c1ccccn1,-4,-1.8,1.7,0.64,-4%,-0.3,0.0
O=C(CN1CCN(c2ccccc2)CC1)c1ccc2cc[nH]c2c1,1,0.1,-2.1,0.73,9%,-3.1,-2.1
Cc1cc2nc(N3C(=O)CNC3=S)sc2cc1C,1,-6.5,x,x,-10%,-2.2,2.4
COCCn1c(C)cc(C2=NNC(=NC(C)(C)C)SC2)c1C,-1,1.5,-2.4,0.66,-2%,3.7,3.4
Cc1cc(C)n2nc(C(=O)N/N=C/c3cccs3)nc2n1,-29,-1.7,x,x,0%,0.1,-2.6

# Single records (already shown). Order of screens: Beta2AR agonist, A1 inh, UCH37 DUB inh, Ecoli growth, Vif A3G, LANA-H2A inh, HNF4A DNA FP
# Cc1nn(C)c(C)c1S(=O)(=O)N(CC(=O)NCCCN1CC(C)CC(C)C1)c1ccc(C(C)C)cc1 (stereo not given) is listed as 11, 0.9, 3.9, 0.66, -11%, -3.4, -9.2
# Cc1nn(CC(=O)N2CCc3ccccc32)c(C)c1S(=O)(=O)NC(C)(C)C is listed as 9, 0.8, 2.6, 0.72, 3%, -0.1, -0.6

# Screening results from PubChem BioAssay.
